STK33 kinase inh = human STK33 kinase inhibition. Q9BYT3. purified STK33, MBP phosphorylation, ADP-Glo luminescence. inhibition, % at 10 µM. actives 0.073% (n = 320,000);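 active means inhibition at or above 25%, using the most active replicate where run in duplicate; inactive means inhibition below 25%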
Target sequence (Q9BYT3 whole entry, looked up): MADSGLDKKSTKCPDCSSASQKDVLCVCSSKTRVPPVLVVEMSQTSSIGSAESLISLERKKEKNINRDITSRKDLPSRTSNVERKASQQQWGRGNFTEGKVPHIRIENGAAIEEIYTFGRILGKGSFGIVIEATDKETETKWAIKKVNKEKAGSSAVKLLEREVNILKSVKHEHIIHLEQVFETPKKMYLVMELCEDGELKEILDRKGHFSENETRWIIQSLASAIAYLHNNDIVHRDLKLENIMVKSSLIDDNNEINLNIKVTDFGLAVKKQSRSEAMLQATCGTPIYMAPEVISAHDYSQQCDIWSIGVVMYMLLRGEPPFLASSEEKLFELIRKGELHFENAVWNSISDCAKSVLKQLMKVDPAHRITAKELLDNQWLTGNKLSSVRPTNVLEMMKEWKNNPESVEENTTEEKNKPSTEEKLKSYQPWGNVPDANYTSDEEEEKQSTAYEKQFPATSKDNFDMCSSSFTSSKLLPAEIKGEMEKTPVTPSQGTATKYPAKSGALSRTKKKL
Active calls of the source: *. A portion of the library; most or all hits stand in other tables.

smiles	STK33 kinase inh
COc1cccc(/C=C/C(=O)OCC(=O)NCc2ccco2)c1OC	-0.9
Cn1c(COc2ccc3ccccc3c2)nnc1SCC(=O)OC1CCCCC1	-0.7
C=CCn1c(SCC(=O)c2ccc(F)cc2)nnc1-c1ccc2c(c1)OCO2	-0.2
Cc1sc2nc(C3CC3)nc(SCC(=O)NCc3ccco3)c2c1C	-0.1
Cc1nn(CCCC(=O)Nc2sc3c(c2C#N)CCC3)c(C)c1[N+](=O)[O-]	0.6
CCN(CCCNC(=O)C1CCN(S(=O)(=O)c2cnc[nH]2)CC1)c1ccccc1	0.7
CC(=O)Nc1ccc(Oc2cc(C#N)c(C#N)cc2N2CCOCC2)cc1	-0.4
COc1ccc(N(CC(=O)N2CCOCC2)S(C)(=O)=O)cc1	-1.7
CC1CCCN(CCOCCSc2ccccc2)C1 (stereo unspecified)	-1.6
COc1ccc(CCC(=O)NNC(=O)c2cc(Cl)ccc2OC)cc1	-0.3
Cc1nc(Nc2ccc3c(c2)OCCO3)c2oc3ccccc3c2n1	1.9
CCc1ccc(N(CC)C(=O)c2cn(C)c(=O)c3ccccc23)cc1	-2.3
CCCN(CCC)Cc1c(C(=O)N/N=C/c2ccc(Br)cc2)nnn1-c1nonc1N	-0.5
COc1ccc(N2CCN(C(=O)c3ccc(COc4ccc5c(C)cc(=O)oc5c4)cc3)CC2)cc1	-5.2
CC(C)(C)NC(=O)CCc1nnc(Cc2c[nH]c3ccccc23)o1	-0.7
NC(=O)c1cc2ccccc2o/c1=N\NC(=O)c1ccncc1	-0.4
CO/N=C/C(C#N)=C/c1cc(C(=O)c2ccc(F)cc2)cn1C	-0.8
COc1ccc(S(=O)(=O)N2CCOCC2)cc1N(C)S(=O)(=O)c1ccc(C)cc1	-0.3
Cc1ccc(NC(=O)C2CCN(S(=O)(=O)c3ccc4c(c3)CCCC(=O)N4)CC2)c(Br)c1	2.0
COC(=O)CCC(=O)Nc1nc(-c2ccccc2)cs1	-0.2
CCOc1ccc(NC(=O)c2ccccc2O)cc1	0.2
Cc1cccc2[nH]c(CN(C)C(=O)C3CCC(=O)N(C4CC4)C3)nc12 (stereo unspecified)	-0.6
COc1ccc(C2=CC(=O)OC(C)(c3ccccc3)O2)cc1 (stereo unspecified)	-1.4
OCC[C@H]1C[C@@H](O)[C@H](O)[C@]2(CCc3ccccc3CO2)O1	-0.4
CC(=O)Nc1ccc(SC[C@H](CC(C)C)N2CCN(CCc3ccccc3)CCC2=O)cc1	0.6
COCCSc1ccccc1C(=O)N1CCN(c2ccccc2OC)CC1	0.4
Cc1n(Cc2ccccc2)c2cc([N+](=O)[O-])ccc2[n+]1Cc1ccccc1	1.3
Cc1ccc2nc(NC(=O)C3CCCN(S(=O)(=O)c4cnc[nH]4)C3)sc2c1 (stereo unspecified)	6.4
Cc1ccc(C)c(NC(NC(=O)c2cccnc2)C(Cl)(Cl)Cl)c1 (stereo unspecified)	-0.8
CCN1C(=O)/C(=C/C=C2/SCCN2C)SC1=S	-0.2
O=C(N/C(=C\c1ccccc1)C(=O)N1CCOCC1)c1cccc(Br)c1	-0.8
CCn1cc(S(=O)(=O)Nc2cc(C(=O)OC)ccc2C)cn1	1.0
Cc1ccc(Nc2nc(-c3ccc(F)cc3)cs2)nc1	4.1
Cc1ccsc1C(C(=O)NC1CCCCC1)N(C(=O)c1csnn1)C1CC1 (stereo unspecified)	-0.6
CCNc1ccc(C(=O)OC(C(=O)NC(N)=O)C(C)C)cc1[N+](=O)[O-] (stereo unspecified)	-0.7
O=C(/C=C/c1ccccc1[N+](=O)[O-])OCC(=O)c1ccccc1	0.0
Cc1cnc(NC(=O)CSc2nnc3ncccn23)s1	-1.1
CCC(=O)Nc1cc(C(=O)OC(C(=O)c2ccc(C)c(C)c2)c2ccccc2)ccc1C (stereo unspecified)	-1.7
Cc1ccc(SCCCCN2C(=O)NC(C)(C)C2=O)cc1	0.1
COc1cccc(CNC(=O)CCS(=O)(=O)c2ccc3c(c2)NC(=O)CO3)c1	0.9
COc1ccc(C(=O)COC(=O)CCc2ccccc2)cc1	-0.8
N/C(=N/OC(=O)c1ccccc1Cl)c1nonc1N	1.7
Cc1cccc(NC(=S)N2CCCCCC2)c1	-0.3
CCC1CN(C(=O)N2CCC(C(=O)NCc3ccc(OC)cc3OC)CC2)c2ccccc2O1 (stereo unspecified)	-0.5
O=C(NCc1ccco1)C1CC(c2c(Cl)cccc2Cl)=NO1 (stereo unspecified)	-0.7
OCCCc1cn(CC2CCCCC2)nn1	-0.8
CC1(C)C2CCC(C2)C1(C)NC(=O)CNCc1cccs1 (stereo unspecified)	0.5
COC(=O)c1ccc(CSc2nnnn2-c2ccc(C)cc2C)o1	-0.3
COCCN(C(=S)Nc1c(C)cccc1C)C(C)c1ccco1 (stereo unspecified)	-0.6
CN(C)C(=O)COC(=O)c1ccc(S(=O)(=O)NCc2ccco2)cc1	-0.6
CCNC(=S)N/N=C/c1sc(N2CCCCC2)nc1-c1cccs1	0.1
O=C(COc1ccc(S(=O)(=O)N2CCCC2)cc1)NCc1ccccn1	-3.4
N#C/C(=C\c1c[nH]c2ccccc12)C(=O)NCC1CCCO1 (stereo unspecified)	-0.1
O=c1[nH]c(=O)n(Cc2ccccc2)c2c1C(C(F)(F)F)(C(F)(F)F)N=C(c1ccco1)N2	1.1
CN(C)c1ccc([N+](=O)[O-])cc1C(=O)O	0.2
Cc1ccc2c(C(=O)CSc3ccccc3)c(C)[nH]c2c1	-1.1
Cc1ccc(C)c(NC(=O)NC2CCCCCCC2)c1	-0.8
Cc1nn(-c2ccccc2)c(Cl)c1C(=O)OCC(=O)N(C)c1c(N)n(Cc2ccccc2)c(=O)[nH]c1=O	-0.9
COc1ccc(-c2cc(C(=O)OC3CCOC3=O)c3ccccc3n2)cc1OC (stereo unspecified)	1.3
O=C(O)c1ccc(-c2ccccn2)s1	1.8

At a glance, 4 of the compounds above:
smiles	STK33 kinase inh
Cc1cccc2[nH]c(CN(C)C(=O)C3CCC(=O)N(C4CC4)C3)nc12 (stereo unspecified)	-0.6
COc1ccc(C2=CC(=O)OC(C)(c3ccccc3)O2)cc1 (stereo unspecified)	-1.4
OCC[C@H]1C[C@@H](O)[C@H](O)[C@]2(CCc3ccccc3CO2)O1	-0.4
CC(=O)Nc1ccc(SC[C@H](CC(C)C)N2CCN(CCc3ccccc3)CCC2=O)cc1	0.6

(further entries)
smiles	STK33 kinase inh
CC(=O)Nc1ccc(S(=O)(=O)N2CCN(Cc3ccccn3)CC2)cc1	0.1
O=C(NCCN1CCOCC1)c1ccc(N2CCCC2)c([N+](=O)[O-])c1	0.1
Cc1cc(C)n2nc(SCC(=O)N3CCc4ccccc43)nc2n1	-0.6
O=C(O)CCCNS(=O)(=O)c1ccccc1	-1.4
O=C(NCC1CCCO1)c1ccc(N2C(=O)C3CCCCC3C2=O)cc1 (stereo unspecified)	-5.6
O=c1[nH]c2ccccc2nc1C(F)(F)C(F)F	1.8
CSc1nc(Sc2cccc(Cl)c2)c2ccccc2n1	-1.6
CCOc1ccc2nc(NC3=NC(c4ccc(OC)cc4)CC(=O)N3)nc(C)c2c1 (stereo unspecified)	-0.4
Cn1c(CCN2CCN(c3ccccn3)CC2)nc2cc(NC(=O)COc3ccc(Cl)cc3)ccc21	2.0
Cc1ccc(-c2nn3c(C)nnc3s2)cc1NC(=O)C(C)C	0.3
COC(C(=O)Nc1ccc(S(=O)(=O)Nc2ccc(C)c(C)c2)cc1)c1ccccc1 (stereo unspecified)	0.4
O=C(NCCCN1CCOCC1)c1nn(-c2ccccc2)c(=O)c2ccccc12	-1.1
CSc1ccccc1NC(=O)CN(C)CC(=O)Nc1c(F)cccc1F	12
Cc1ccccc1NC(=O)/C(=C/c1ccccc1)c1ccccc1	1.6
COc1cccc(CC2(CO)CCN(Cc3cnc(-c4cccc(C)c4)nc3)CC2)c1	-0.1
c1ccc(-c2nc3ccccc3[nH]2)nc1	1.0
CCOC(=O)[C@H]1O[C@@H]1C(=O)N[C@@H](CC(C)C)C(=O)NCCC(C)C	-0.6
Cc1cnc(C(=O)OCC(=O)Nc2oc(-c3ccccc3)c(-c3ccccc3)c2C#N)cn1	0.9
NC1=NC[C@@H](CC2CCCCC2)N1CCc1cc(C(F)(F)F)cc(C(F)(F)F)c1	8.6
CCOC(=O)Cn1nc(C)cc1NC(=O)c1cccnc1	0.2
COc1ccc(CC(=O)N(C)C2CCCCC2)cc1S(=O)(=O)N1CCOCC1	-0.6
CCc1nnc(NC(=O)CSc2nnc(C)n2-c2ccc(C)cc2)s1	0.3
Cc1cc(N/C(=N/S(=O)(=O)c2cc(F)ccc2F)c2ccccc2)n(-c2ccccc2)n1	0.3
COc1ccc(N2CCN(c3ncnc4sc(C(=O)NCC5CCCO5)c(C)c34)CC2)cc1 (stereo unspecified)	-2.4
CCN(CC)C(=S)Oc1ccc(Cl)cc1Cl	-2.3
COc1cc(C)c(S(=O)(=O)N2CCOCC2)cc1C(C)C	0.7
Cc1cc(Nc2cccc(C)c2C)n2ncnc2n1	0.8
O=C(CN1C(=O)c2ccccc2S1(=O)=O)Nc1ccccn1	-0.3
COc1cccc(/C=N\NC(=O)c2cc(OCC(F)(F)F)ccc2OCC(F)(F)F)c1	-0.9
CC1(C)Cc2cccc(OCC(=O)Nc3ccc(OCC(N)=O)cc3)c2O1	0.8
Cc1ccc(NC(=O)COC(=O)C2CCC(=O)N2)c(S(=O)(=O)N2CCOCC2)c1 (stereo unspecified)	-1.5
O=C(O)c1ccc(-n2nc(-c3ccccc3)c3ccccc3c2=O)cc1	0.9
CCCCN(CC)CCNC(=O)C1CCN(S(=O)(=O)c2cccc3nsnc23)CC1	-1.6
O=C(Cc1ccc(Cl)cc1Cl)OCC(=O)c1ccc[nH]1	-0.8
CCC1CCCCN1CCCNC(=O)C1CCN(c2ncnc3c2nc2n3CCCCC2)CC1 (stereo unspecified)	0.1
Cc1ccc(S(=O)(=O)Nc2cccc3cccnc23)cc1	-1.2
CC(C)(C)n1nnnc1CN1CCN(C2CCCC2)CC1	0.3
COC(=O)c1ccccc1NCCO	-4.6
CCn1cc(CN2CCCC(CNS(=O)(=O)c3cccc4cccnc34)C2)cn1 (stereo unspecified)	-1.4
COc1ccc(NC(=O)c2cccnc2C(=O)O)c(OC)c1	1.0
COc1ccc(CC(=O)OC(C)C(=O)Nc2ccc(S(N)(=O)=O)cc2)cc1 (stereo unspecified)	-1.0
CC(C)CNC(=O)CCCc1ccccc1	-0.5
CCCOc1ccc(C2C(=O)N(C3CCCCC3)CC(=O)N2CCC)cc1OC (stereo unspecified)	-1.8
COc1cccc(CNC(=S)NC2CC2)c1	-1.7
Clc1cccc(-c2nnc3n2CCCCC3)c1	-0.9
O=C(c1ccc(Br)cc1)N1CCN(S(=O)(=O)c2ccccc2)CC1	-0.6
COCCNc1c2c(nc3c(-c4ccccc4)c(C)nn13)CCCC2	-0.5
Nc1nonc1C(=O)NCCNS(=O)(=O)c1ccc(Br)cc1	-0.6
Cn1c(=O)c2c(nc(NCC3CCCO3)n2C)n(C)c1=O (stereo unspecified)	-2.1
COc1cccc(C(=O)CN2C3=NCCCN3c3ccccc32)c1	-0.2
Cc1nn2cc(-c3ccc(-c4ccccc4)cc3)nc2s1	-1.0
CN1C(=O)/C(=N\OC(=O)c2ccccc2Cl)c2ccccc21	1.8
Cc1ccc(CSc2nc3ccccc3cc2C=O)cc1	-1.4
CC1=C(C(N)=O)C(c2ccncc2)n2nc(-c3ccccc3Cl)nc2N1 (stereo unspecified)	-1.1
Cc1ccccc1-c1cc(C(=O)n2cccn2)c2cc(Cl)ccc2n1	-1.3
O=C(Nc1ccc(N2CCN(C(=O)c3cccs3)CC2)cc1)c1cccnc1	1.2
Cc1cccc(NC(c2ccc(C)s2)c2ccc3ccc(C)nc3c2O)n1 (stereo unspecified)	-0.4
CCOc1ccc(CNC(=O)CCCOc2cc(=O)n(C)c3ccccc23)cc1	-0.2
CC(=O)NC(C)CCc1ccccc1 (stereo unspecified)	-1.1
O=c1oc(-c2ccccc2NS(=O)(=O)c2ccc3ccccc3c2)nc2ccccc12	-1.4

As entered above.
STK33 kinase inh with COc1ccc(CC(=O)OC(C)C(=O)Nc2ccc(S(N)(=O)=O)cc2)cc1 (stereo unspecified) → -1.0
STK33 kinase inh with CN1C(=O)/C(=N\OC(=O)c2ccccc2Cl)c2ccccc21 → 1.8

The listing picks up with the 5 entries that preceded the break.
smiles	STK33 kinase inh
O=C(Nc1ccc(N2CCN(C(=O)c3cccs3)CC2)cc1)c1cccnc1	1.2
Cc1cccc(NC(c2ccc(C)s2)c2ccc3ccc(C)nc3c2O)n1 (stereo unspecified)	-0.4
CCOc1ccc(CNC(=O)CCCOc2cc(=O)n(C)c3ccccc23)cc1	-0.2
CC(=O)NC(C)CCc1ccccc1 (stereo unspecified)	-1.1
O=c1oc(-c2ccccc2NS(=O)(=O)c2ccc3ccccc3c2)nc2ccccc12	-1.4
COc1cccc(CN2CCN(Cc3nc4c(s3)CCCC4)CC2CCO)c1 (stereo unspecified)	-1.0
CCOC(=O)N1CCN(S(=O)(=O)c2ccc3[nH]c(=O)oc3c2)CC1	-1.6
CC(C)c1ccc(NC2CCCN(C(=O)CC3CCCC3)C2)cc1 (stereo unspecified)	1.5
COc1ccc(C)cc1NC(=O)C1CC1c1ccccc1 (stereo unspecified)	-2.8
O=c1c(Cl)c(NC2CC2)cnn1-c1ccccc1	0.1
CCC(=O)Nc1nc(NCc2ccccc2OC)n(-c2ccccc2)n1	-3.9
Cc1cc(C(=O)CSc2nc3ccccc3o2)c(C)n1C1CC1	-0.4
CC1Cc2ccccc2N1C(=O)COC(=O)c1c2c(nc3ccccc13)CCCCC2 (stereo unspecified)	-0.8
CS(=O)(=O)c1ccc(-c2cccc(NC(=O)c3ccc(Br)o3)c2)nn1	-2.2
NC(=O)c1ccc(NC(=O)CNC(c2ccccc2)c2ccccc2)cc1	-5.5

Source: PubChem BioAssay (Broad Institute)
